hNpr1 antagonist: antagonists of human natriuretic peptide receptor Npr1; P16066; HEK293 hNpr1 GloSensor cGMP, ANP-stimulated luminescence; Potency, µM (titrated, usually from 46.3 µM), inactives show top-dose activity change, negative = inhibition, usual class: inhibitors; 76,000 compounds, 1.6% hits; active = well fitted inhibition curve with a large enough effect; inconclusive = small, poorly fitted or top-dose-only effect; inactive = no such curve, though single readings can be large or run the other way;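 also: nearly all actives have a fitted effect of over 60% in size; nearly all hits also lower the signal before the agonist is added; a reference antagonist and vehicle were the controls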
Target sequence (P16066 whole entry, looked up): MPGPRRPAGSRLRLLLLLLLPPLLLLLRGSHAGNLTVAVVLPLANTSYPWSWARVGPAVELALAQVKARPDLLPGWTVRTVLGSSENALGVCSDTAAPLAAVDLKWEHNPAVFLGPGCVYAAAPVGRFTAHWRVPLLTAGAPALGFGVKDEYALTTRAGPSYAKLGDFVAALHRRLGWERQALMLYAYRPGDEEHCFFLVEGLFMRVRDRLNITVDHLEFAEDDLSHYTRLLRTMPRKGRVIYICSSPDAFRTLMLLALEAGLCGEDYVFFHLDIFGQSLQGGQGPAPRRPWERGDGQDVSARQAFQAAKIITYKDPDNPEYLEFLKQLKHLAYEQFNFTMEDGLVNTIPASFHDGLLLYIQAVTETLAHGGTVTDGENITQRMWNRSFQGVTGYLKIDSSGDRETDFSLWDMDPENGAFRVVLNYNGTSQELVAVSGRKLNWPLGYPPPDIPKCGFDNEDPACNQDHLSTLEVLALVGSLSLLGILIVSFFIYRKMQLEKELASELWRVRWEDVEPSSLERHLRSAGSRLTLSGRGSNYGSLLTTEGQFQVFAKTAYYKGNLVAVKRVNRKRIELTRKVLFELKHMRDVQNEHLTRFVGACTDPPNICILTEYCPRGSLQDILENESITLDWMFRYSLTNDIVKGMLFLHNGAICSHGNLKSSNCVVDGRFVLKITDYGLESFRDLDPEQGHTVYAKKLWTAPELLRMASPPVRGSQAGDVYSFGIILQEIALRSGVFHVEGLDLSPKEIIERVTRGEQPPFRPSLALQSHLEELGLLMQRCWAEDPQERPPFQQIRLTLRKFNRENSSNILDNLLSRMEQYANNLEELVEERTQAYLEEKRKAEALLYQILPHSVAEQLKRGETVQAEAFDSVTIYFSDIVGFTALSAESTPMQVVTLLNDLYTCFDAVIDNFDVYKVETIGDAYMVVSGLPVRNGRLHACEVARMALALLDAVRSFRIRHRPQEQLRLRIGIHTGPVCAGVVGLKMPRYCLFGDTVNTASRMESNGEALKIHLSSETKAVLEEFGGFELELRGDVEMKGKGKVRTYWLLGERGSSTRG
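Compound pre-incubated 30 min at room temperature on GloSensor-loaded HEK293 cells stably carrying hNpr1 and the pGS-40F cGMP biosensor. Stimulation uses hNppA at 0.1 nM final; luminescence is taken at baseline and 20 min post-agonist.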
* marks the source's active call; other numbers are inactive results; ? = inconclusive; [ ] = dose if it differs, or a comment. % is scaled to controls: 0 for no effect and ±100 for the full control effect; potency is read from the fitted curve at half-maximal effect. Not all compounds are listed; rates above refer to the full screens.

SMILES | hNpr1 antagonist
COc1ccc(C(=O)N[C@@H]2C[C@H](Cn3cc(CN(C)C)nn3)[C@@H](O)[C@H]2O)cc1 | -1%[70.6 µM]
O=C(C1CC=CCC1)N1CCc2[nH]nc(-c3ccc(C(F)(F)F)cc3)c2C1 (stereo unspecified) | -6%
NC(=O)C1CCN(c2ncncc2-c2nc(-c3ccccc3)no2)CC1 | 3%
COc1ccc(CN2CCC3(CC2)OCCN(Cc2ccccc2F)C3=O)cc1O | 0%[70.6 µM]
C[C@]1(NC(=O)Cc2ccccc2)OC[C@@H]2CC[C@H](C(=O)Nc3ccc(OC(F)(F)F)cc3)N2C1=O | 1%
COc1ccc(-c2[nH]nc3ncc(-c4ccccc4)nc23)c(C)c1 | -21%[70.6 µM]
COCCn1ncc(N2CCC(NC(=O)c3ccc(OC)c(F)c3)CC2)cc1=O | 0%
COC1C(=O)N(c2cccc(F)c2)C12CCN(Cc1sccc1C)CC2 (stereo unspecified) | -10%
Cc1nn(C)c2nc(-c3ccccn3)nc(N3CCC4(CC3)COC(=O)O4)c12 | -1%
Cc1ccc(C)c(NC(=O)N2CCC(Oc3ncccc3C(=O)N3CCCCC3)C2)c1 (stereo unspecified) | 3%
COc1ccc(C(=O)N2CCCCCCNC(=O)[C@@H]3CCC[C@@H]32)c(OC)c1 | -1%
CCCNC(=O)N1CCn2nnc(CCC(=O)N3CCOCC3)c2C1 | 5%
Cn1cccc1C(=O)N1C[C@@H](COCC2CC2)[C@H](c2ccccn2)C1 | -2%
CCCC1=Nc2cc(C(=O)NCc3ccccc3Cl)ccc2Sc2ccc(Cl)cc21 | 4%
Cc1nnc2n1CCC(N(C)C(=O)CCc1ccccc1)CC2 (stereo unspecified) | -7%
CN(C)C[C@@H]1CN(c2ncccn2)C[C@H]1NS(=O)(=O)c1ccc(C#N)cc1 | -3%
O=C(Nc1ncc(-c2cccc(F)c2)c2c1OCC2)c1ccc(F)c(Cl)c1 | -13%[70.6 µM]
CC(C)(Oc1nn(CC2CCOCC2)c2ccccc12)C(=O)NCC1CCOCC1 | -2%[70.6 µM]
Cc1cc2c(N[C@@H]3CCOC[C@H]3OCc3c(C)noc3C)ncnc2s1 | 2%
O=C([C@@H]1C[C@H](F)CN1C(=O)c1ccco1)N1CCCCC1 | 5%
Cc1cc(C[C@@H]2COC[C@@H]2NC(=O)c2sc3nc[nH]c(=O)c3c2C)on1 | 4%
CC1=C[C@@H](CNC(=O)c2cccnc2)[C@H](C(C)C)C[C@H]1CC(=O)NCc1ccccn1 | -1%[70.6 µM]
O=S1(=O)CCC(S(=O)(=O)Nc2ccccc2)C1 (stereo unspecified) | 5%
CCC(C)NC(=O)c1ccc(-c2cccc(C#N)c2)o1 (stereo unspecified) | 0%
N#Cc1ccc(CN2CCCC2=O)cc1 | -11%

14 entries from above, ordered by molecular weight, high to low:
SMILES | hNpr1 antagonist
C[C@]1(NC(=O)Cc2ccccc2)OC[C@@H]2CC[C@H](C(=O)Nc3ccc(OC(F)(F)F)cc3)N2C1=O | 1%
Cc1ccc(C)c(NC(=O)N2CCC(Oc3ncccc3C(=O)N3CCCCC3)C2)c1 (stereo unspecified) | 3%
COCCn1ncc(N2CCC(NC(=O)c3ccc(OC)c(F)c3)CC2)cc1=O | 0%
COc1ccc(C(=O)N[C@@H]2C[C@H](Cn3cc(CN(C)C)nn3)[C@@H](O)[C@H]2O)cc1 | -1%[70.6 µM]
CN(C)C[C@@H]1CN(c2ncccn2)C[C@H]1NS(=O)(=O)c1ccc(C#N)cc1 | -3%
Cc1nn(C)c2nc(-c3ccccn3)nc(N3CCC4(CC3)COC(=O)O4)c12 | -1%
O=C(C1CC=CCC1)N1CCc2[nH]nc(-c3ccc(C(F)(F)F)cc3)c2C1 (stereo unspecified) | -6%
Cc1cc(C[C@@H]2COC[C@@H]2NC(=O)c2sc3nc[nH]c(=O)c3c2C)on1 | 4%
COc1ccc(-c2[nH]nc3ncc(-c4ccccc4)nc23)c(C)c1 | -21%[70.6 µM]
Cc1nnc2n1CCC(N(C)C(=O)CCc1ccccc1)CC2 (stereo unspecified) | -7%
O=C([C@@H]1C[C@H](F)CN1C(=O)c1ccco1)N1CCCCC1 | 5%
O=S1(=O)CCC(S(=O)(=O)Nc2ccccc2)C1 (stereo unspecified) | 5%
CCC(C)NC(=O)c1ccc(-c2cccc(C#N)c2)o1 (stereo unspecified) | 0%
N#Cc1ccc(CN2CCCC2=O)cc1 | -11%

(cont.)
SMILES | hNpr1 antagonist
CSCC(=O)N1C[C@@H](NC(=O)NC2CCCCC2)C[C@H]1C(=O)N[C@H](Cc1c[nH]c2ccccc12)C(N)=O | -2%
O=C1c2c(nc(CNCc3ccccc3)n2Cc2ccccc2)NCCN1CCOc1ccccc1 | -11%
Cc1ccncc1C(=O)NCC(=O)N1CCCCCNC(=O)CC1c1ccccc1 (stereo unspecified) | 3%
CCC(=O)N1CCC(c2noc(COC)n2)C1 (stereo unspecified) | 3%
N#Cc1ccc(C(=O)N[C@@H]2CN(Cc3ccccc3)C[C@H]2CO)cc1 | 2%
O=C(CC1CCc2ccccc21)N1CCN(S(=O)(=O)N2CCCC2)CC1 (stereo unspecified) | -1%
O=C(O)C(c1cccc2c1OCC2)N1CCCN(c2ncccn2)CC1 (stereo unspecified) | 6%
CC1=C[C@@H](CN(C)CCN(C)C)[C@H](C(C)C)C[C@H]1Cc1nnc(-c2ccccc2)o1 | 2%[70.6 µM]
CN(Cc1ccccn1)c1ccc(-c2nc(Cc3ccc(F)cc3)no2)cn1 | 3%
COC[C@H]1C[C@@H](NC(=O)CC(C)(C)C)[C@H](O)[C@@H]1O | 1%[70.6 µM]
COc1ccc(S(N)(=O)=O)cc1C(=O)NCc1cccnc1-n1ccnc1 | 0%
O=C(NCc1ccc(F)cc1)[C@H]1CN(Cc2ccccc2)C[C@H]1C(=O)O | -14%
CC1=NS(=O)(=O)N(C)C=C1C(=O)OCc1nc(-c2cccc(C)c2)no1 | 11µM*
CCCNC(=O)N1CCCC(c2nc(-c3cccnc3)no2)CCNC(=O)CC1 (stereo unspecified) | 3%
O=C(c1ccc(Cl)s1)N1CCC2(CC1)CN(c1ccncn1)CC2CO (stereo unspecified) | ?
O=C(c1cn[nH]c1)N1CC2(CN(Cc3cccc(OC(F)(F)F)c3)CC2COc2ccccc2)C1 (stereo unspecified) | -24%
Cc1ccc(-c2cc(N3CCCN(C(=O)c4cccs4)CC3)n[nH]2)cc1C | -14%
O=C(c1ccccc1)N1CCCC(c2nn[nH]n2)C1 (stereo unspecified) | -19%
c1ccc(CCc2nc3nccc(-c4ccccn4)n3n2)cc1 | 0%
CC(C)(Oc1nn(Cc2cccc(Cl)c2)c2ccccc12)C(=O)NCCN1CCOCC1 | -21%
O=C(CCc1c[nH]c2ccccc12)NCC12CCCC=C1N(CC1CC1)C(=O)CC2 (stereo unspecified) | -1%
Cc1cnc(C(=O)N2CCC(Oc3cccnc3)C2)cn1 (stereo unspecified) | -3%
CCNC(=O)NC1(Cc2cc(-c3ccc(OC)cc3)on2)COC1 | -1%[70.6 µM]
COc1ccc(N2CCN(C(=O)CCn3ccn4nc5c(c4c3=O)CCCC5)CC2)cc1 | -2%
N#Cc1cccc(-c2ccnc(N[C@H]3CO[C@H]4[C@@H]3OC[C@H]4OC(=O)NC3CCCCC3)n2)c1 | 5%

Continued.
SMILES | hNpr1 antagonist
OCCC1CN(c2cc(C(F)(F)F)ccn2)CCN1CC1CCCCC1 (stereo unspecified) | 9%
Cc1cccc(-n2nc(C)c(CCC(=O)NC3CC3)c2Oc2ccccc2)c1 | 0%
O=C(c1ccco1)N1CCC(Nc2cccnc2)C1 (stereo unspecified) | 10%
COc1cc(C(=O)N2CCCN(c3cc(-c4ccc(F)cc4)[nH]n3)CC2)cc(OC)c1OC | -1%
COCCNS(=O)(=O)c1ccc2c(c1)CN(C(=O)Cn1cncn1)CC2 | -1%
OC[C@@H]1O[C@H](CNC2CCOCC2)[C@H](N2CCc3ccccc3C2)[C@@H]1O | 5%
CC1=C[C@@H](CNC(=O)CC(C)(C)CC(=O)O)[C@H](C(C)C)C[C@H]1Cc1nc2c(C)cccc2[nH]1 | 2%
CCN(CC)Cc1cnc2c(C(=O)N[C@H](C(N)=O)C(C)C)cnn2c1 | -3%
COc1ccc(C2=NOC3(CCN([S+](=O)([O-])c4ccccc4)C3)C2)cc1 (stereo unspecified) | -15%
COc1ccc(CNC(=O)c2cnc3c(c2)N(C(=O)CCc2ccccc2)CCC3)cc1OC | -18%
O=C(c1ccoc1)N1CCC(CCOc2ccc(F)cc2)C1 (stereo unspecified) | -13%
O=C(Cn1nc2c(cc1=O)CCCC2)NC1CCN(Cc2ccccc2)CC1 | 1%
COCc1nc(NCCCc2c(C)noc2C)cc(C2CC(N)C2)n1 (stereo unspecified) | 0%
Cn1cc(CN2CCCCCCNC(=O)[C@@H]3CCC[C@@H]32)c2ccccc21 | -14%
CCc1noc(CC2CCOC3(CCN(S(=O)(=O)c4c(C)cc(C)cc4C)CC3)C2)n1 (stereo unspecified) | ?
O=C(NC1CCN(c2cc(-c3ccc(F)cc3)[nH]n2)C1)c1ccccc1 (stereo unspecified) | -14%
O=C(c1cc[n+]([O-])cc1)N1CCC2(CCCN(CCC3CCCCC3)C2)C1 (stereo unspecified) | 1%
O=C(C1CCCN(c2nc3ncccc3o2)C1)N1CCN(Cc2ccccc2)CC1 (stereo unspecified) | 2%
O=C1NCCOCCN(S(=O)(=O)c2cccs2)[C@H]2CCC[C@@H]12 | 4%
CN1CCN(c2nc3c(c(=O)[nH]2)CCN(Cc2ccc(Br)cc2)CC3)CC1 | -7%
O=C([C@@H]1C[C@H](F)CN1C(=O)Nc1cccc(C(F)(F)F)c1)N1CCc2ccccc2C1 | 0%
COc1ccc(C(=O)N2CCCC3(C2)NC(=O)N(Cc2ccccc2)C3=O)cc1 (stereo unspecified) | 1%
CC1(C(=O)NCCN2CCCCC2)CCCCC(=O)N1 (stereo unspecified) | 1%
CC(C)(C)NC(=O)N1CCCN(C(=O)C2CC2)C(c2ccccc2)CC(=O)NCC1 (stereo unspecified) | 0%
Cc1cc(NC(=O)C(C)(C)Oc2nn(CCOc3ccccc3)c3ccccc23)n(C)n1 | 25µM*

More entries
SMILES | hNpr1 antagonist
CCCCS(=O)(=O)N[C@@H]1CN(c2ncccn2)C[C@H]1CN(C)C | -5%
COc1ccccc1CNC(=O)CN1CCC(O)(c2ccc(F)cc2)CC1 | -12%
O=C(CCn1cncn1)N1CCc2[nH]nc(-c3cccc4ccccc34)c2C1 | -1%
Cc1nc(N2CCC(NC(=O)C3CCCO3)CC2)cc(C(F)(F)F)n1 (stereo unspecified) | -2%
CN(C)c1cccc(C(=O)N2CCC3(CC2)NC(=O)N(c2cccc(Cl)c2)N3)c1 | -12%
O=C(NCCn1ccn2nc(-c3ccc(F)cc3)cc2c1=O)c1ccsc1 | -6%
O=C(NCCc1ccncc1)c1cccc2c1CCN2C(=O)Nc1ccc(F)cc1 | 3.5µM*
CN(Cc1cccn1C)Cc1ccnn1C | 33%[activator][70.6 µM]
Cn1cccc1C(=O)NC1CCN(C(=O)N2CC3CC(C2)[C@H]2CCCC(=O)N2C3)CC1 (stereo partly specified) | -1%
COc1cc(OC)cc(-c2onc(C)c2C(=O)NC2Cc3ccccc3C2)c1 | -13%
O=C(NC[C@H]1Cn2c(-c3ccc4c(c3)OCO4)cnc2CO1)Nc1ccccc1 | -26%[70.6 µM]
O=C(Nc1cccc(Cl)c1)C1CN(c2cccc(Cl)c2)C(=O)N1 (stereo unspecified) | 0%
CCOC(=O)C1CCN(C(=O)CCN(CC)C(=O)c2cc(C)oc2C)CC1 | -10%
O=C1NCCCCCCN(C(=O)c2cccs2)[C@H]2C[C@H](c3nc(-c4cccnc4)no3)C[C@@H]12 | 1%
COc1ccc(-c2cc(N3CCCN(C(=O)Cc4ccccc4Br)CC3)n[nH]2)cc1 | -4%
O=C1NCCCCCCN(C(=O)c2ccccn2)[C@H]2CCC[C@@H]12 | 2%
Cn1cnc(S(=O)(=O)N[C@H]2CCN(C(=O)CSCC(=O)O)[C@H](C(=O)N[C@H](Cc3ccccc3)C(N)=O)C2)c1 | -1%
NC(=O)[C@H]1CCCN1Cc1cnc(N2CCCCC2)nc1 | 7%
O=C(NC1CCCN(C2CCCCCC2)C1)c1ccccc1N1CCOCC1 (stereo unspecified) | 4%
CCNC(=O)N1CCC(Cc2ncc(C)n2C2CC2)C1 (stereo unspecified) | -1%
COCCN1CC(CO)C2(CCN(Cc3ccc(F)c(F)c3)CC2)C1 (stereo unspecified) | 1%
Cc1cc(C(=O)Nc2ccc([C@H]3OCC(=O)N(CC(C)C)[C@@H]3CO)cc2)n(C)n1 | -17%[70.6 µM]
CC(C)NC(=O)N[C@H]1C[C@@H](Cc2cc(CN3CCN(c4ccccc4)CC3)on2)C1(C)C | 11µM*
COCc1cccc(C(=O)N2CC[C@@](C)(O)[C@@H](O)C2)n1 | -2%
COc1ccc(NC(=O)N2CCCC(Cn3cnc4cccnc43)C2)cc1OC (stereo unspecified) | -11%
CC(C)c1ccc(C(=O)N2CCC3(CC2)OC(=O)N(CC2CC2)C3(C)c2cccnc2)cc1 (stereo unspecified) | -4%
Cc1ccc(C(=O)N2CCC3(CC2)CC(c2cccnc2)=NO3)cc1 | 16%[70.6 µM]
C=CCNC(=O)CN1CN(c2ccccc2)C2(CCN(C(=O)NCc3ccccc3)CC2)C1=O | -2%
Cc1cnc(C(=O)N2CCC3(CC2)CC(OCC2CC2)CCO3)cn1 (stereo unspecified) | 0%

Assay outcomes from PubChem BioAssay.
